KCNQ2 enhance = enhances the rat KCNQ2 potassium channel | 310,000 tested, 0.54% active | CHO-K1 KCNQ2, FluxOR thallium flux fluorescence; hits give high values | O88943 | B-score at 10 µM;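 active = fluorescence ratio B-score at least 3 SD of library B-scores, with initial fluorescence B-score within 3 SD, cut at about 5.3 in these data; same plate scores as AID 2156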;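 note: B-score of peak minus minimum over baseline fluorescence ratio after K+ and Tl+ stimulus; positive B-score means potentiation of KCNQ2 with more thallium influx and brighter signal; only the inactives scoring about 0 or higher are listed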
Target sequence (O88943 whole entry, looked up): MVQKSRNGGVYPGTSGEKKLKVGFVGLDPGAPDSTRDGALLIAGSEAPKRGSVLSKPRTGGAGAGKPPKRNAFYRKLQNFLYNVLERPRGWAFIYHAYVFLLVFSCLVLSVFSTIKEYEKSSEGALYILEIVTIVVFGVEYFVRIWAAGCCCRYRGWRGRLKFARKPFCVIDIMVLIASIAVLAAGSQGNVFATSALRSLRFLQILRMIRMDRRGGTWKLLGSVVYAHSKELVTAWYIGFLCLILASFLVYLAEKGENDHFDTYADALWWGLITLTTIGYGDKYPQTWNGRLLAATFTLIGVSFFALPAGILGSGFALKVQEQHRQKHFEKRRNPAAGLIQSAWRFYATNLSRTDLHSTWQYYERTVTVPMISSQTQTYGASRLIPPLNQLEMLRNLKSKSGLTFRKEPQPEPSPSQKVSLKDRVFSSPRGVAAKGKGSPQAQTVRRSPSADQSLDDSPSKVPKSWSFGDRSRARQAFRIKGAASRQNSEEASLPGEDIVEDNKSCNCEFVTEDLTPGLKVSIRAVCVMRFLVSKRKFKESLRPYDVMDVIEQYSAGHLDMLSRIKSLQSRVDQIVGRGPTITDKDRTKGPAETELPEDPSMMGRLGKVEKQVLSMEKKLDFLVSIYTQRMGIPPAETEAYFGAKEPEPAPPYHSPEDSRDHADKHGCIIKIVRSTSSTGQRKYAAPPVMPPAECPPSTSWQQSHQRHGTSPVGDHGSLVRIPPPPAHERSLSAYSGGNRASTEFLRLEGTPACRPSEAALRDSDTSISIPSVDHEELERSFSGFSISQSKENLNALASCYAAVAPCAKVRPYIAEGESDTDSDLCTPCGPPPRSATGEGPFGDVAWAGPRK
KCNQ2 enhance baseline = recorded beside KCNQ2 enhance, whose call it bears; B-score; compound at 10 µM; measured here: initial fluorescence intensity artifact check;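 brightness before thallium and not channel activity; 0 = typical well and far values either way flag optical interference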
* marks the source's active call; other numbers are inactive results.

SMILES	KCNQ2 enhance	KCNQ2 enhance baseline
COC(=O)c1sccc1-n1cccc1C(=O)N1CCOCC1	1.7	-2
Cc1cc(NC(=O)C(C)SCC(=O)Nc2ccccc2OC(F)F)no1 (stereo unspecified)	0.55	1.2
Cc1nn(CCc2n[nH]c(=S)n2C2CCCCC2)c(C)c1Br	1.6	0.19
O=S(=O)(CCSc1nc2ccccc2s1)c1nc2ccccc2s1	1.2	-0.21
CN(C)c1ccc(-c2noc(C3CCN(S(=O)(=O)c4cccc(C(=O)O)c4)CC3)n2)cc1	2.1	0.57
CCc1nc(C)cn1S(=O)(=O)c1cc(Br)ccc1OC	1	-0.23
Oc1c(Br)cc(Br)cc1C=NCc1ccc(F)cc1	11*	2*
NC(=O)CC(NC(=O)Cc1ccc(Br)cc1)c1ccc(NC2CC3CCC2C3)c([N+](=O)[O-])c1 (stereo unspecified)	0.61	0.02
CCc1cc(CNC(=O)CC2C(=O)NCCN2CC2CCCCC2)on1 (stereo unspecified)	0.32	2.1
Cc1cc(C(=O)COC(=O)c2ccc(CO)cc2)c(C)n1CC1COc2ccccc2O1 (stereo unspecified)	0.24	-0.32
O=C1NC(=O)C(=C2CCCCCC2)S1	0.12	1.5
CCn1c(CC(=O)Nc2ccccc2)nnc1SCC(=O)Nc1nnc(C)s1	0.7	1.3
CCCCNc1cc(NC(C)=O)cc2cc(OC)c(OC)cc12	1.8	-1.4
COc1ccc(CN(C)C(=O)c2ccc(NS(=O)(=O)c3ccc(F)cc3)cc2)c(OC)c1	1.1	0.05
COc1ccc(COC(=O)NNC(=O)c2ccccc2Cl)cc1	0.49	0.67
Cc1ccc(NC(=O)CSc2nnc(N)s2)c([N+](=O)[O-])c1	1.1	-0.01
Cc1nnc(SCC(=O)Nc2nccs2)o1	1.3	-0.02
CCOC(=O)CNC(=O)CSc1nnnn1-c1cc(C)ccc1C	1.4	-0.31
NC(=O)C1CCN(c2oc(-c3ccccc3)nc2S(=O)(=O)c2ccc(Br)cc2)CC1	2.5	1.9
CCNC(=O)NC(=O)C(C)OC(=O)CCS(=O)(=O)c1ccc(C)cc1 (stereo unspecified)	2.8	-0.84
CC(=O)Nc1cccc(-c2nnc3c4ccccc4c(C)nn23)c1	0.39	-1.4
Cc1cccc(C(=O)N/C(=C\c2ccco2)C(=O)N2CCCC2)c1	0.11	4.9
CN(Cc1ccc(F)cc1)C(=O)c1ccc(NC(=O)CC2SC(N3CCCC3)=NC2=O)cc1 (stereo unspecified)	0.8	-0.72
COc1cc2c(c3oc(=O)cc(CC(=O)O)c13)CCC(C)(C)O2	0.7	-1.1
CC(C(=O)Nc1cccc(C#N)c1)N(C)CCOc1ccccc1 (stereo unspecified)	0.36	-0.99

Structural class: those above with nitrogen in an aromatic ring
SMILES	KCNQ2 enhance	KCNQ2 enhance baseline
COC(=O)c1sccc1-n1cccc1C(=O)N1CCOCC1	1.7	-2
Cc1cc(NC(=O)C(C)SCC(=O)Nc2ccccc2OC(F)F)no1 (stereo unspecified)	0.55	1.2
Cc1nn(CCc2n[nH]c(=S)n2C2CCCCC2)c(C)c1Br	1.6	0.19
O=S(=O)(CCSc1nc2ccccc2s1)c1nc2ccccc2s1	1.2	-0.21
CN(C)c1ccc(-c2noc(C3CCN(S(=O)(=O)c4cccc(C(=O)O)c4)CC3)n2)cc1	2.1	0.57
CCc1nc(C)cn1S(=O)(=O)c1cc(Br)ccc1OC	1	-0.23
CCc1cc(CNC(=O)CC2C(=O)NCCN2CC2CCCCC2)on1 (stereo unspecified)	0.32	2.1
Cc1cc(C(=O)COC(=O)c2ccc(CO)cc2)c(C)n1CC1COc2ccccc2O1 (stereo unspecified)	0.24	-0.32
CCn1c(CC(=O)Nc2ccccc2)nnc1SCC(=O)Nc1nnc(C)s1	0.7	1.3
Cc1ccc(NC(=O)CSc2nnc(N)s2)c([N+](=O)[O-])c1	1.1	-0.01
Cc1nnc(SCC(=O)Nc2nccs2)o1	1.3	-0.02
CCOC(=O)CNC(=O)CSc1nnnn1-c1cc(C)ccc1C	1.4	-0.31
NC(=O)C1CCN(c2oc(-c3ccccc3)nc2S(=O)(=O)c2ccc(Br)cc2)CC1	2.5	1.9
CC(=O)Nc1cccc(-c2nnc3c4ccccc4c(C)nn23)c1	0.39	-1.4

Continued:
SMILES	KCNQ2 enhance	KCNQ2 enhance baseline
COc1ccc(CNC(=O)C2CC=CCC2C(=O)O)cc1OC (stereo unspecified)	0.02	-0.98
O=C(NCc1ccc2c(c1)OCO2)Nc1ccc2ccccc2c1	0.01	0.18
Cc1ccc(OCC(=O)NC(=S)Nc2ccccn2)c(Br)c1	0.5	-0.51
O=C(Cc1ccccc1)NCC(=O)Nc1ccc(OC(F)(F)F)cc1	0.68	0.51
COc1ccccc1CNS(=O)(=O)CCNC(=O)c1ccccc1	0.55	-0.11
CCn1nnc(-c2ccccc2NC(=O)c2cnccn2)n1	0.91	0.71
O=C1/C(=C/c2ccc(O)cc2)COc2ccccc21	0.39	-2.3
CCc1[nH]nc(C(=O)N/N=C/c2ccncc2)c1C	0.85	-0.68
O=C(Cn1sc2ccccc2c1=O)NC12CC3CC(CC(C3)C1)C2	0.17	-0.04
CCCCCC(=O)Nc1ccc(N2CCN(CC)CC2)c(Cl)c1	2.4	-0.15
O=C1CSC(c2cccnc2)N1Cc1cccnc1 (stereo unspecified)	0.61	0.17
CCC(C(=O)NCCCN1CCCCCC1)n1nc(C)c2sc3ccccc3c2c1=O (stereo unspecified)	1.8	-0.86
CCOC(=O)c1sc2ccc(S(=O)(=O)N3CCCCC3)cc2c1N	0.44	-0.27
CCNc1nc(OC)nc(SCC(=O)Nc2ccccc2)n1	0.65	-0.02
CC(C)C(=O)Nc1cccc(-c2nc3ccccc3o2)c1	1.6	-1.1
CCCS(=O)(=O)N1CCC(C(=O)NCCc2ccc(OC)c(OC)c2)CC1	0.04	0.05
COc1ccc(C(=O)NC(=S)N2CCC(C)CC2)cc1	1.3	-2.3
O=C(Nc1ccc(F)cc1F)c1noc2c1CCC2	0.37	-0.57
CCOc1ccc(C(=O)Nc2nnc(C(C)C)s2)cc1OCC	0.67	0.7
COCCNC(=O)Cn1c(=O)oc2cc(S(=O)(=O)N3CC(C)CC(C)C3)ccc21 (stereo unspecified)	0.69	0.03
C/C(=N\NC(=O)CSCc1cccc(Br)c1)c1ccc([N+](=O)[O-])cc1	0.78	-1.1
N/C(=N\OC(=O)CCCc1ccccc1)c1cccc([N+](=O)[O-])c1	4	-3.9
CN(C)c1ccc(/C=C/c2nc3ccccc3s2)cc1	1.1	0.27
COc1cc(C2NC(=O)NC(c3ccccc3)=C2C(C)=O)cc(Cl)c1OCC(=O)O (stereo unspecified)	1.6	-0.97
COC(=O)N/N=C/c1cn(CCOc2cccc(OC)c2)c2ccccc12	2	-2.8
Other results follow:
SMILES	KCNQ2 enhance	KCNQ2 enhance baseline
Cc1ccc(CNC(=O)C(=O)Nc2nccs2)cc1	0.34	-0.2
CCOC(=O)c1ccc(NC(=O)N2CCN(c3ccccn3)CC2)cc1	0.13	-1
Cc1nc(CS(=O)c2ccccc2)cc(N2CCOCC2)n1 (stereo unspecified)	0.55	0.05
O=C(CC1SCCNC1=O)Nc1ccccc1Cl (stereo unspecified)	0.06	0
CC(=O)Nc1ccc(CN2CCCC(CO)(Cc3cccc(Cl)c3)C2)cc1 (stereo unspecified)	1	0.01
O=Cc1c(SCCO)nc2ccccn2c1=O	0.54	-0.04
CCOC(=O)C1CCN(C(=O)CN(c2ccc(Cl)c(C(F)(F)F)c2)S(C)(=O)=O)CC1	0.33	-0.29
N=C1S/C(=C\c2ccc(O)cc2)C(=O)N1c1ccc(F)cc1	2.3	-0.59
CCCOc1ccc(C(=O)NCC(c2ccco2)N(C)C)cc1OC (stereo unspecified)	0.44	-0.12
O=C(NCc1ccc(Cl)cc1Cl)Nc1ccccc1	11*	-0.63*
COc1cccc(C(=O)N(CN2CCCC2=O)c2ccccc2OC)c1	2.5	-1.1
CC1=C(C(=O)OCc2ccccc2)C(c2cccs2)NC(=O)N1CCCC(=O)O (stereo unspecified)	1.1	1.5
CC(C)COc1ccc(C(=O)Nc2ccccc2[N+](=O)[O-])cc1	0.21	0.86
CN(C)CCN(Cc1ccco1)C(=O)c1cc2c(Cl)nc3ccccc3c2s1	0.08	-0.52
CC(=O)NCCSC(=O)c1ccc(F)cc1	1.4	-0.36
CC(C)C(=O)Nc1ccc(S(=O)(=O)N2CCC(c3nc4ccccc4[nH]3)CC2)cc1	1	0.3
CCCC(CCC)C(=O)Nc1ccncc1	0.05	0.35
COc1ccc(C2CC(c3cccs3)=NN2C(=O)CSC2=NCCS2)cc1 (stereo unspecified)	0.09	1.2
CN(C)c1ccc(C(CC(=O)O)C(=O)O)cc1 (stereo unspecified)	1.1	0.41
Cc1cc(C)cc(Oc2ccc(C(F)(F)F)cc2C#N)c1	0.01	0.6
CCC(C)[C@H]1CNC(=S)N1CCC12CC3CC(CC(C3)C1)C2 (stereo partly specified)	0.12	0.07
Fc1ccc(Nc2ncnc3sccc23)cc1	1.2	0.52
O=C(COc1ccccc1)N1CCNC1=O	0.79	-0.67
CN(C)CCN(C(=O)c1ccco1)c1nc2cc3c(cc2s1)OCCO3	1.3	0.87
O=C1NC2(Nc3ccccc31)C(=O)Nc1ccccc12 (stereo unspecified)	0.11	-0.12
Next part
SMILES	KCNQ2 enhance	KCNQ2 enhance baseline
COc1ccc(NC(=O)N2CCCC2C(=O)Nc2ccc(C)c(Cl)c2)cc1 (stereo unspecified)	0.7	0.11
COCCNC(=O)C(c1ccc(OC)cc1)N(Cc1ccco1)C(=O)CCC(=O)Nc1ccccn1 (stereo unspecified)	0.23	-0.32
O=c1[nH]c(=O)n(C2CCCO2)cc1F (stereo unspecified)	0.56	1
Cc1cc(C)nc(N2CCC(C(=O)Nc3ccc4c(c3)CCC4)CC2)n1	0.02	-0.03
Fc1ccc(CNc2ccccn2)cc1	0.89	-1.9
CCOC(=O)CN1CCC(c2ccccc2)CC1	0.73	-0.24
CC(C)(C)C(=O)N1CCn2c1nc1ccccc12	0.56	-0.02
CC(=O)c1sc(NC(=O)c2ccc(COc3ccccc3Cl)o2)nc1C	0.05	-0.63
O=C(CCN1C(=O)c2ccccc2C1=O)Nc1cccc(S(=O)(=O)NC2=NCCC2)c1	1.3	-1.1
COc1cc(/C=C/C(=O)OCC(=O)NC2CCS(=O)(=O)C2)ccc1O (stereo unspecified)	0.68	-0.05
CCOc1ccc(CC(=O)NNC(=O)/C=C/C(=O)O)cc1	1.4	-2.9
CC1CCN(CCCCOc2cccc(C(C)C)c2)CC1	0.87	-0.54
CC1(C)NS(=O)(=O)Oc2ccccc21	0.32	-1
CC(C)(C)OC(=O)NOCC(=O)N(CC(=O)c1ccccc1)Cc1ccccc1	0.17	-0.39
Cn1nccc1C(=O)Nc1sc2c(c1C#N)CCCC2	0.43	0.3
CC(=O)NC1(c2cccc(F)c2)CCN(CC(=O)NC(C)C)CC1	0.05	2.1
c1ccc(OCCN2C3=NCCN3c3ccccc32)cc1	1.2	0.82
CCOC(=O)c1cc(CC)sc1N	1.8	0.08
Cc1cc(C)c2c(c1)/C(=N/NC(=O)c1ccc(O)cc1)CCC2	0.13	0.07
c1ccc(CSc2ccc(-c3ccccn3)nn2)cc1	0.03	0.96
Cc1cc(/C=N/n2cnnc2)c(C)n1-c1ccccc1	0.75	1.6
COc1ccc(N(CC(=O)Nc2ccc3c(c2)OCCO3)S(C)(=O)=O)c(OC)c1	0.2	-0.45
COc1ccccc1CCNC(=O)CNC(=O)Cc1cccc2ccccc12	3.6	-2.2
O=C1/C(=C/c2ccc(F)cc2)SC(=S)N1NS(=O)(=O)c1ccccc1	1.9	-0.95
Cc1cc2cc(CNC(=S)NC3CCCCC3)ccc2[nH]1	1.1	1.3
(further entries)
SMILES	KCNQ2 enhance	KCNQ2 enhance baseline
CCCn1c(Sc2nc3c(c(=O)[nH]c(=O)n3C)n2CCC)nc2c1c(=O)[nH]c(=O)n2C	1.4	0.76
O=C1CC2(CCCCCC2)Oc2ccccc21	0.29	-0.37
O=C(O)CC1(CC(=O)NCc2ccc(F)cc2)CCCCC1	0.44	0.02
O=C(c1cc(S(=O)(=O)N2CCC3(CC2)OCCO3)ccc1F)N1CCCCC1	0.67	0.27
O=S(=O)(c1ccc2ccccc2c1)N1C=CC(C(F)(F)F)=NCC1	0.03	-1.1
CC(=O)Nc1c(O)nc(SC/C=C/CSc2nc(O)c(NC(C)=O)c(=O)[nH]2)[nH]c1=O	0.01	-2.3
COc1ccccc1C(=O)Oc1cc(C)[nH]c(=O)c1[N+](=O)[O-]	1.2	-2.4
CCCn1c(C2CCCN2c2nc(-c3cccc(Br)c3)cs2)nc2ccccc21 (stereo unspecified)	2.9	1.8
COc1ccccc1NC(=O)CSc1nnc2ccc(-c3ccccn3)nn12	1.1	0.15
CC(/C=N/n1cnnc1)=C\c1ccccc1	0.78	-0.64
Cc1cnc([N+](=O)[O-])n1CCOC(=O)NC(=O)c1c(F)cccc1F	1.2	-0.16
Cc1cc(OCC(=O)NCCCN2CCOCC2)cc(C)c1Cl	0.76	0.6
O=C(NCCN1CCOCC1)c1cc2ccccc2o1	1.1	-2.4
O=C(NCc1ccccc1)c1cccnc1N1CCOCC1	1.1	-2.9
CCCCN1C(=O)C(NC(=O)CC(C)C)(C(F)(F)F)C2=C1CC(C)(C)CC2=O (stereo unspecified)	3.3	-3.6
Cc1ccc(NC(=O)CNC(=O)Cn2cnc3sc(C)c(C)c3c2=O)cc1F	1.2	0.52
COCc1c(C(=O)OCc2nc(N)nc(Nc3ccccc3C)n2)oc2ccccc12	1.2	0.62
O=C(CNC(=O)c1cccs1)c1ccc(F)cc1	1.1	-1.2
CC(C(=O)NC1CCCC1)N(Cc1ccc2c(c1)OCO2)C(=O)c1snc(C(N)=O)c1N (stereo unspecified)	1.4	-0.05
COC(=O)[C@H](C)NC(=O)COc1ccccc1	0.29	-0.09
[N-]=[N+]=NC(c1ccccc1)c1nc2ccccc2[nH]c1=O (stereo unspecified)	0.21	-0.09
COC(=O)C1=C(N)OC2=C(C(=O)CCC2)C1c1ccccc1OC (stereo unspecified)	0.02	-0.58
O=C(N/N=C1\CC2CC=CC12)c1ccc(O)cc1 (stereo unspecified)	1.8	-0.12

A portion of the library; rates above refer to the full screens.
